Compound activity deposited in PubChem BioAssay by Southern Research Institute.
Mtb H37Rv – Mycobacterium tuberculosis H37Rv growth inhibition, putative kinase inhibitor library, confirmatory dose response (AID 2842) | actives 5.2% (n = 24,000) | inhibition, % at 10 µg/mL, or IC90 in µg/mL where a hit was titrated | M. tuberculosis H37Rv growth inhibition; higher % means a stronger effect; some inactives read as strong as hits;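 active = confirmed in a dose series; inconclusive = mostly over 85% at the one dose but not retested; inactive = below 85% or not confirmed; about a fifth of its hits are not listed in these tables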;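 note: bacteria incubated one week before Alamar blue readout; 0% = bacteria only wells and 100% = bacteria with high antibiotic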
Active calls of the source: *; ? = inconclusive. Not all compounds are listed (hit frequency here may not be typical).

molecule | Mtb H37Rv
Cc1ccc(NC(=O)CSc2nnc(CCC(=O)O)c(=O)[nH]2)cc1 | ?
COc1ccc(NS(=O)(=O)c2cc3c4c(c2)CCN4C(=O)CC3)c(OC)c1 | -10%
CCCCSc1nc(N)c(NC(=O)c2ccco2)c(=O)[nH]1 | -8%
O=C1C(=O)N(CCCn2ccnc2)C(c2ccco2)/C1=C(\O)c1ccc2c(c1)OCCO2 (configuration not stated) | -8%
COc1ccccc1-n1c(=O)[nH]c2c(C(N)=O)nc(-c3cccc(Cl)c3)nc21 | 2%
COc1ccc(N2C(=O)C3N=NN(CC(=O)Nc4ccc(C)cc4)C3C2=O)cc1Cl (configuration not stated) | -16%
Cc1ccc(NC(=O)COC(=O)c2ccc3c(c2)C(=O)N(c2cccc(C)c2C)C3=O)cc1 | 0%
Cc1c(C)n2c(SCc3ccccc3)nnc2[nH]c1=O | -10%
Cc1ccc(NC(=O)CSc2nc3c(c(=O)n2-c2ccc(F)cc2)SCC3)cc1Cl | -1%
COC(=O)c1ccc2nc(NC(=O)c3ccco3)sc2c1 | 4%
O=C(CSc1ccc2nnc(-c3ccncc3)n2n1)Nc1ccc2c(c1)OCCO2 | -8%
Cc1cc(OC(=O)C(c2ccccc2)c2ccccc2)c([N+](=O)[O-])c(=O)[nH]1 | 2%
O=c1[nH]c2ccccc2nc1/C=C/c1ccc(Cl)cc1Cl | 1%
Cc1ccccc1C(=O)Nc1c(C(=O)Nc2ccc([N+](=O)[O-])cc2)oc2ccccc12 | 7%
COc1cc2c3nnc(-c4ccccc4)c-3cn(Cc3cccc(C)c3)c2cc1OC | -3%
Cc1c(/C=C(\C#N)c2nc3ccccc3[nH]2)c(Cl)nn1-c1ccccc1 | -4%
Cc1ccc(C)c(NC(=O)CSc2nnc(CCC(=O)O)c(=O)n2N)c1 | 33%
Cc1ccc(C)c(-c2nnc(NC(=O)c3ccc([N+](=O)[O-])cc3)o2)c1 | 78µg/mL*
CCOc1cccc2c1Oc1nc(-c3ccccc3O)[nH]c(=O)c1C2 | -11%
O=C(CSc1nnc2sc3ccccc3n12)c1cccs1 | -1%
COc1ccc(CCNC(=O)CSc2ncnc3c2nnn3-c2ccc(F)cc2)cc1OC | 1%
N#Cc1cc2c(nc1SCC(=O)c1cc3ccccc3oc1=O)CCCC2 | 52%
CN(C(=O)c1cccc(F)c1)c1nnc(C23CC4CC(CC(C4)C2)C3)s1 | 6%
Cc1ccc(CSc2nc3c(c(=O)[nH]c(=O)n3C)n2CC(N)=O)cc1 | -1%
O=C(CSc1nnc2ccc(-c3cccnc3)nn12)NCc1ccco1 | 7%

Other entries follow.
molecule | Mtb H37Rv
Cc1cc(F)ccc1S(=O)(=O)Nc1ccccc1C(=O)O | -13%
CCN1CCc2c(sc(NC(=O)COc3ccc(Cl)cc3)c2C(N)=O)C1 | 4%
N#C/C(=C\c1c(F)cccc1Cl)C(=O)Nc1sc2c(c1C(N)=O)CCCC2 | 5%
O=C1C(=O)N(CCCn2ccnc2)C(c2ccccn2)/C1=C(/O)c1ccccc1 (configuration not stated) | -9%
COc1cc2ccccc2cc1C(=O)Nc1nnc(-c2ccco2)o1 | ?
CCOc1ccc(N2CC(NC(=O)Nc3ncccc3C)CC2=O)cc1 (configuration not stated) | -1%
CCC(C)Nc1nc2c(c(=O)[nH]c(=O)n2C)n1CCC(C)C (configuration not stated) | 8%
O=C1C(=O)N(CCCn2ccnc2)C(c2cccnc2)/C1=C(\O)c1ccc2c(c1)OCCO2 (configuration not stated) | 0%
CCc1cc2c(=O)[nH]c(C(C)C)nc2s1 | -5%
CCOc1ccccc1NS(=O)(=O)c1cc2c3c(c1)CCN3C(=O)CC2 | 2%
O=C(Nc1nc(-c2cccs2)c(C(=O)C(F)(F)F)s1)c1ccc(N2C(=O)CCC2=O)cc1 | 3%
CC(=O)N1CCc2c(sc(NC(=O)c3ccc(N4C(=O)CCC4=O)cc3)c2-c2nc3ccccc3s2)C1 | 2%
Cc1cccc(C(=O)Nc2nnc(-c3ccc(Cl)cc3)s2)c1 | 13%
Cc1nnc(SCCn2c(N3CC(C)CC(C)C3)nc3c2c(=O)[nH]c(=O)n3C)s1 (configuration not stated) | -2%
CC(=O)Nc1cccc(NC(=O)CSC2=Nc3cccnc3Nc3ccccc32)c1 | 13%
O=c1oc2ccccc2cc1-c1csc(Nc2nc3cc4c(cc3s2)OCO4)n1 | 0%
NC(=O)c1c(NC(=O)/C=C/c2cccs2)sc2c1CCCCC2 | 26%
O=C(Cc1cccc2ccccc12)Nc1c2c(nn1-c1ccccc1)CS(=O)C2 (configuration not stated) | 9%
C=CCn1ccn(-c2cccc(Cl)c2)c(=O)c1=O | 0%
Cc1cnc(=O)[nH]c1SCC(=O)Nc1ccccc1 | -22%
O=C(Nc1nnc(SCc2ccccc2)s1)C1CCCCC1 | 6%
COc1ccc(C(=O)c2cn(Cc3ccc(C)cc3)c3ccc(C)cc3c2=O)cc1 | 75%
O=C(/C=C/c1ccccc1)NNC(=O)c1cccnc1 | -6%
NC(=O)c1c(NC(=O)c2ccc(S(=O)(=O)N3CCc4ccccc4C3)cc2)sc2c1CCCCC2 | -6%
O=C1NC(=Nc2ccccc2)SC1Cc1ccc(Br)cc1 (configuration not stated) | ?

Remaining list, next part:
molecule | Mtb H37Rv
O=C1c2ccccc2-c2c(NC3CCCCC3)c(=O)[nH]c3cccc1c23 | 73%
Cc1cc2c(c(=O)[nH]1)C(c1ccccc1)C(C#N)=C(N)O2 (configuration not stated) | -2%
CCn1cc(C(=O)Nc2nc(C)cs2)c2nn(-c3ccccc3)c(=O)c-2c1 | -2%
O=C(CSCC(=O)Nc1nc(-c2ccc3c(c2)OCO3)cs1)Nc1nccs1 | -13%
O=C(Nc1nnc(-c2cccc([N+](=O)[O-])c2)s1)c1ccccc1F | 4%
O=C(O)CSc1nnc(-c2ccco2)n1-c1ccccc1 | -35%
Cc1nc2sc(C(c3cccc(Cl)c3)N3CCN(C(=O)c4ccco4)CC3)c(O)n2n1 (configuration not stated) | 74%
CCOC(=O)c1c(O)c2ccccc2oc1=O | -4%
COc1ccc(-c2nsc(SCC(=O)Nc3ccc(C(C)=O)cc3)n2)cc1 | 26µg/mL*
COc1ccc2nc(-c3ccc(F)c(NC(=O)c4ccccc4F)c3)cn2n1 | -11%
CCC(Sc1nc2ccccc2s1)C(=O)Nc1nnc(-c2cccc([N+](=O)[O-])c2)s1 (configuration not stated) | 2%
CCOC(=O)c1ccc(NC(=O)c2sc3nc(C)cc(C)c3c2N)cc1 | 84%
COC(=O)CSc1nc(-c2ccc(OC)cc2)nc2c1Cc1cc(C)ccc1O2 | -2%
CCOC(=O)c1nn(-c2ccc(F)cc2)c(=O)c2c(NC(=O)c3cc4ccccc4o3)scc12 | 2%
O=C(CNCCO)N1N=C(c2cccs2)CC1c1cccs1 (configuration not stated) | 4%
Cc1ccc(-c2csc3ncnc(SCC(=O)Nc4ccc(Cl)cc4)c23)cc1 | 11%
C#CCn1c(=NC(=O)c2cccc(Br)c2)sc2cc(NC(C)=O)ccc21 | 12%
CCOC(=O)c1oc2ccccc2c1NC(=O)Cc1ccc(OC)c(OC)c1 | 6%
O=C(CSc1nc2c(oc3ccccc32)c(=O)n1Cc1ccco1)Nc1ccccc1C(F)(F)F | -8%
Cc1c(Cl)cccc1NS(=O)(=O)c1c[nH]c(=O)[nH]c1=O | -5%
O=c1cc(CO)oc(C(Nc2ccccn2)c2cccc(F)c2)c1O (configuration not stated) | -3%
Cc1cc([N+](=O)[O-])ccc1NC(=O)/C=C/c1c(Cl)cccc1Cl | 1%
CCOC(=O)c1sc(NC(=O)CSc2nc3sc(C(C)=O)c(C)c3c(=O)[nH]2)nc1C | 2%
Cc1cc(C)c2sc(Cl)nc2c1 | -1%
COc1ccccc1NS(=O)(=O)c1ccc2[nH]c(=O)cc(C)c2c1 | -5%

Next part.
molecule | Mtb H37Rv
NC(=O)c1nc(-c2ccc(F)c(F)c2)nc2c1[nH]c(=O)n2-c1ccc2c(c1)OCO2 | -7%
O=C(CSc1ccc2nnc(-c3cccc(F)c3)n2n1)Nc1ccc2c(c1)OCCO2 | -11%
O=C(COc1ccc(Cl)cc1)Nc1cccc(-c2ccc3nncn3n2)c1 | 70%
COc1ccc2nc(Nc3sc4c(c3-c3nc5ccccc5s3)CCCC4)sc2c1 | 3%
Cc1ccc(-n2c(=O)[nH]c3c(C(N)=O)nc(-c4ccc(O)cc4)nc32)cc1C | -14%
CCOc1ccc(-c2nnc3c4cc(F)ccc4n(Cc4cccc(F)c4)cc2-3)cc1 | 39%
COc1cc(/C=C(\C#N)c2nc(-c3ccc4c(c3)OCO4)cs2)cc([N+](=O)[O-])c1O | 38µg/mL*
CCOC(=O)c1nn(-c2ccc(Cl)cc2)c(=O)c2c(NC(=O)c3c(F)cccc3F)scc12 | -2%
CC1CCN(C(=O)CCCc2nnc3c(=O)n(-c4ccc(Cl)cc4)ccn23)CC1 | 0%
CCOC(=O)C1CCN(C(c2cccc(Cl)c2)c2sc3nc(C)nn3c2O)CC1 (configuration not stated) | -7%
Cc1ccc(-n2c(=O)[nH]c3c(C(N)=O)nc(-c4cccc(Br)c4)nc32)cc1C | -20%
CCNC(=O)C(=O)Nc1cc2c3c(c1)CCN3C(=O)CC2 | -21%
COc1ccc(NC(=O)CSc2nnc3[nH]c(=O)ccn23)cc1OC | 46%
Cc1ccc(S(=O)(=O)Nc2ccccc2C(=O)Nc2c(C(N)=O)oc3ccccc23)cc1 | 3%
Cc1ccc(-c2nnc(NC(=O)/C=C/c3ccccc3)o2)c(C)c1 | 78%
CCN(CC)c1ccc(C=C(c2nnnn2-c2ccc(C)cc2)c2nnnn2-c2ccc(C)cc2)cc1 | 3%
COc1ccc(OC)c2[nH]c(=O)c(CCNC(=O)Cc3ccc(F)cc3)cc12 | 4%
Cc1ccc(NC(=O)/C(C#N)=C\C2=Cc3ccccc3OC2)cc1 | 1%
O=C(CSc1ncc(S(=O)(=O)c2ccc(Cl)cc2)c(=O)[nH]1)Nc1ccc2c(c1)OCCO2 | -16%
O=C(c1cccc(F)c1)N(Cc1ccccc1)c1nnc(C23CC4CC(CC(C4)C2)C3)s1 | 13%
Cc1ccc(C(=O)Nc2ccc(S(N)(=O)=O)cc2)cc1Br | 3%
COc1cc2c(cc1OC)C(COc1ccc([N+](=O)[O-])cc1)N(C(=S)NC(C)(C)C)CC2 (configuration not stated) | 10%
Cc1ccc(C)c(-c2nnc(NC(=O)c3ccc(S(=O)(=O)N4CCCCCC4)cc3)o2)c1 | -3%
Cc1nnc(SCCn2c(N3CCCCCC3)nc3c2c(=O)[nH]c(=O)n3C)s1 | -1%
CC1(C)COc2ccc(NC(=O)C3CCCCC3)cc2NC1=O | 5%

Random excerpt: four compounds from above
molecule | Mtb H37Rv
COc1ccc(OC)c2[nH]c(=O)c(CCNC(=O)Cc3ccc(F)cc3)cc12 | 4%
Cc1ccc(-n2c(=O)[nH]c3c(C(N)=O)nc(-c4cccc(Br)c4)nc32)cc1C | -20%
COc1ccc(NC(=O)CSc2nnc3[nH]c(=O)ccn23)cc1OC | 46%
CC1CCN(C(=O)CCCc2nnc3c(=O)n(-c4ccc(Cl)cc4)ccn23)CC1 | 0%

The results go on.
molecule | Mtb H37Rv
COc1cc(-c2nnc(NC(=O)c3ccc(F)cc3)o2)cc(OC)c1OC | 38%
CCCCCCn1c(SCC(=O)OC)nc2c1c(=O)[nH]c(=O)n2C | -9%
COc1ccccc1-c1cnn2c(NC3CCCCC3)cc(C)nc12 | 14µg/mL*
CS(=O)(=O)c1ccc(-c2nnc(NC(=O)c3ccc(N4C(=O)CCC4=O)cc3)o2)cc1 | -5%
COc1ccc(-c2[nH]nc3c2C(c2ccc(OC(=O)N4CCOCC4)cc2)C(C#N)=C(N)O3)cc1 (configuration not stated) | -10%
COC(=O)c1ccc(CSc2ccc3nnc(-c4ccc(F)cc4)n3n2)o1 | 3%
Cc1ccccc1NC(=O)Cn1cc(S(=O)(=O)c2ccc(F)cc2)c(=O)c2cc3c(cc21)OCO3 | 14%
C=C(C)Cn1c(N/N=C/c2ccc(O)cc2O)nc2c1c(=O)n(C)c(=O)n2C | -10%
O=C(N=Nc1c(O)[nH]c2ccccc12)c1cc(-c2ccc(F)cc2)n[nH]1 | -9%
CCCCc1nc(SCc2cccc(C(F)(F)F)c2)c2c(=O)n(C)c(=O)n(C)c2n1 | -11%
CCOc1ccc(C(=O)Nc2nnc(-c3ccccn3)o2)cc1 | 1µg/mL*
COc1ccc(C2C(C#N)=C(SCC(=O)Nc3ccccc3C)NC3=C2C(=O)CC(C)(C)C3)cc1 (configuration not stated) | 14%
Cc1cc(SCc2ccc(F)cc2)nc(=O)[nH]1 | -9%
Cc1cc2cc(CCNC(=S)Nc3ccccc3F)c(=O)[nH]c2cc1C | 15%
Cc1c(C(=O)NCc2nnc(SCC(=O)Nc3nccs3)o2)cccc1[N+](=O)[O-] | 2%
CNC(=O)c1ccsc1NC(=O)c1cc2c(ccc3ccccc32)oc1=O | 5%
CCOC(=O)c1nn(-c2ccc(F)cc2)c(=O)c2c(NC(=O)C(C)Cl)scc12 (configuration not stated) | 7%
CCCCOc1cccc(C(=O)Nc2nnc(-c3cc(C)ccc3C)o2)c1 | 12µg/mL*

Four entries from above in a different format.
Cc1c(C(=O)NCc2nnc(SCC(=O)Nc3nccs3)o2)cccc1[N+](=O)[O-]
  Mtb H37Rv: 2%
CNC(=O)c1ccsc1NC(=O)c1cc2c(ccc3ccccc32)oc1=O
  Mtb H37Rv: 5%
CCOC(=O)c1nn(-c2ccc(F)cc2)c(=O)c2c(NC(=O)C(C)Cl)scc12 (configuration not stated)
  Mtb H37Rv: 7%
CCCCOc1cccc(C(=O)Nc2nnc(-c3cc(C)ccc3C)o2)c1
  Mtb H37Rv: 12µg/mL*
